# PINK1 expr mod = modulators of PINK1 expression; Potency, µM (series often up to 76.6 µM), for inactives: top-dose activation (PINK1 increase), hits mostly activators; hit rate 0.2% among 410,000; PINK1 immunofluorescence, high-content cytometry, 24 h; active = well fitted activation curve with a large enough effect; inconclusive = small, poorly fitted or top-dose-only effect; inactive = flat fitted curve, though single readings scatter; cell line not stated here;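 also: potency is read from the fitted curve at half-maximal effect; % of control where 0% means no effect; nearly all actives have a fitted effect of over 65% in size; a mitochondrial uncoupler was the plate control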
#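 Stable cell line treated 24 h with compounds at 5 concentrations (CCCP controls), then fixed and immunostained for PINK1 plus nuclear and cell stains; PINK1 immunofluorescence quantified by laser-scanning microplate cytometry.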
# D2 ag = human D2 receptor agonism in beta-arrestin assay. P14416. DiscoveRx PathHunter D2 beta-arrestin, luminescence, 90 min; 100% = 57 uM dopamine signal. hit rate 0.084% among 360,000. activation, % (concentration not given with the values); in the data active = activation above about 40%; inconclusive = about 15% to 40%; inactive = below about 15%; also: compound concentration not given in the record; the text of the record calls up to 30% inactive
# Target sequence (P14416 whole entry, looked up): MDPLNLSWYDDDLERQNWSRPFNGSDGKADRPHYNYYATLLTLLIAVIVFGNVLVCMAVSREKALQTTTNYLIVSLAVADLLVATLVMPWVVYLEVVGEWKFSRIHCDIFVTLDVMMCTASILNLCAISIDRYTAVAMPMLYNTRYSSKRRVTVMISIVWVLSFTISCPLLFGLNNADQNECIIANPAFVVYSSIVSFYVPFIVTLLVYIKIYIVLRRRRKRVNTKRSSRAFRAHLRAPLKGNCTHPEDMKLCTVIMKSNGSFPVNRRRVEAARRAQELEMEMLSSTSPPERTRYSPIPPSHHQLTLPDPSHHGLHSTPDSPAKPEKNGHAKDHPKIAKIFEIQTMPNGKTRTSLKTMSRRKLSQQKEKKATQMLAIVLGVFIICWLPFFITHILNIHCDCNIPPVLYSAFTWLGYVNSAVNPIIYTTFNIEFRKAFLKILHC
#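 Agonist mode: compounds alone added to overnight-plated D2 PathHunter cells for 90 min at 37 C, with 57 uM final dopamine (EC100) defining full response. Beta-arrestin recruitment detected by chemiluminescent reagent, read after 1 h at ambient temperature.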
# Six1-Eya2 inh = Six1/Eya2 interaction inhibition; hit rate 0.56% among 360,000; AlphaScreen GST-Six1/His-Eya2 binding, biochemical; stronger effect = lower value; control for the full effect not named in the record; activity change, % (test concentration not listed); Q15475+O00167; in the data active = activity change below about -65%; inconclusive = about -30% to -65%; inactive = above about -30%; also: % is scaled to controls: 0 for no effect and ±100 for the full control effect; compound concentration not given in the record
#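 AlphaScreen luminescence read after one hour at 37 °C in darkness. Pin-transferred compounds met GST-Six1 and His-Eya2 protein (5X stock 250 nM/500 nM) plus glutathione donor and Ni-chelate acceptor beads (5X, 50 ug/mL).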
# TRPV1 PAM = potentiators of human vanilloid receptor 1 (TRPV1). Q8NER1. TRPV1-expressing cells, Fluo-8 calcium influx, capsaicin EC20 potentiation; host cell line not named in the record; control for the full effect not named in the record. potentiation, % at 8.33 µM. hit rate 0.02% among 320,000. AID 540277; active means potentiation above 80%; inconclusive means 30% to 80%; inactive means below 30%; also: 0% is about no effect
#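 Fluo-8 calcium influx in TRPV1-expressing cells, kinetic read (ex 480/em 520 nm). Compound added and read 3 min for agonist activity, followed by capsaicin at EC20 final and 2 min further read for enhancement.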
# CtBP-E1A inh = inhibitors of CtBP/E1A interaction; AlphaScreen GST-E1A/His-CtBP binding, 1536-well; stronger effect = lower value; control for the full effect not named in the record; hit rate 0.49% among 340,000; AID 651724; activity change, % (no concentration beside the values); in the data active means activity change below about -65%; inconclusive means about -30% to -65%; inactive means above about -30%; also: % is scaled to controls: 0 for no effect and ±100 for the full control effect; compound concentration not given in the record
#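 Homogeneous bead-based format: GST-tagged E1A captured on glutathione donor beads, His-tagged CtBP on nickel acceptor beads; compounds precede bead addition by 2 h at 37 °C.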
# D2 PAM = human D2 receptor positive allosteric modulation; P14416; DiscoveRx D2 beta-arrestin cells, luminescence, 90 min; 100% = 57 uM dopamine signal; potentiation, % (no concentration beside the values); hit rate 0.23% among 360,000; AID 624464; active = potentiation of 50% or more; inconclusive = 30% to 50%; inactive = 30% or less;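 also: compound concentration not given in the record; tested on top of an EC20 dose of dopamine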
#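 PathHunter beta-arrestin assay in DiscoveRx D2 cells. Compounds were added with an EC20 of dopamine (50 nM final) for 90 min at 37 deg C. Luminescence was read 1 h after detection reagent, with 57 uM dopamine as the EC100 control.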
# Sfp PPTase inh = blocks B. subtilis Sfp PPTase activity | AID 1490 | Biochemical Sfp PPTase activity, qHTS | hit rate 3.5% among 310,000 | Potency, µM, for inactives: max response, negative = inhibition, actives largely listed as inhibitors | Q9F4F7; active = well fitted inhibition curve with a large enough effect; inconclusive = small, poorly fitted or top-dose-only effect, or another doubt; inactive = no such curve, though single readings can be large or run the other way;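 also: the enzyme is Sfp with the accession as filed and its product quenches rhodamine fluorescence; potency is read from the fitted curve at half-maximal effect; 0% = enzyme reaction without inhibitor and -100% = no enzyme wells; top concentration of the series not given in the record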
#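 Compounds were incubated with enzyme (final 15 nM) for 15 min at room temperature before substrate addition started the reaction. Fluorescence at 525 nm excitation, 598 nm emission was recorded immediately and after 30 minutes.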
# Numbers without * were called inactive; ? = inconclusive; nt = not tested or not shown; & = joins results of further samples; [ ] = dose if it differs, or a comment.
SMILES,PINK1 expr mod,D2 ag,Six1-Eya2 inh,TRPV1 PAM,CtBP-E1A inh,D2 PAM,Sfp PPTase inh
COc1ccc(C(=O)c2oc3ccc(OC)cc3c2N)cc1,-0.4%,-0.1,9,2,14,-9,-25%
COCCCN1C2=C(C(=O)CC(C)(C)C2)C(c2ccc(O)c(OC)c2)C2=C1CC(C)(C)CC2=O,-0.2%,-0.3,8,-3,12,-4,0%
COc1cc(OC)cc(C(=O)Nc2ccc(S(=O)(=O)Nc3cnc4ccccc4n3)cc2)c1,2.3%,0.2,?,nt,?,-5,nt
NS(=O)(=O)c1ccc(N/C=C\C(=O)c2ccc(F)cc2)cc1,0.6%,1.4,-12,-7,-25,0,-20%
COCC(=O)N(Cc1cc2ccccc2[nH]c1=O)c1ccccc1OC,-0.6%,-3.3,-19,-3,4,-21,9%
COc1ccc(NCC(=O)Nc2cccc(S(=O)(=O)N3CCCC3)c2)cc1Cl,-0.6%,-4.3,-27,nt,?,-13,nt
O=C(COC(=O)c1ccc(S(=O)(=O)NCc2ccco2)cc1)c1ccccc1,3.2%,-3.7,?,12,5,-3,-4%
N/C(=N\OC(=O)c1cccc(Br)c1)c1ccncc1,0.4%,?,3,-8,-1,?,10%
COc1cc(C2c3c(oc4cc(C)c(C)cc4c3=O)C(=O)N2c2cc(C)ccn2)ccc1O (centres undefined),5.4%,0.2,4,7,5,2,23%
O=C(c1ccccc1F)N1N=C(C(F)(F)F)CC1(O)c1ccccc1 (centres undefined),5.0%,-3.2,0,nt,-4,-12,nt
CCOC(=O)c1c(C)[nH]c(C)c1S(=O)(=O)N(C)CC(=O)Nc1cccc(C)n1,3.7%,-5.4,3,-9,nt,-3,8%
CCc1ccc(NC(=O)C(=O)NNC(=O)COc2cccc(OC)c2)cc1,0.2%,0.2,0,-6,-18,-3,13%
COc1ccc(CN(CCCN2CCOCC2)C(=O)Nc2ccccc2)cc1OC,2.2%[38.3 µM],-5.0,0,-10,8,-18,9%
COc1ccc(NC(=O)C2CCN(S(=O)(=O)c3ccc(Cl)c(C(F)(F)F)c3)CC2)cn1,?,-1.2,4,nt,-6,-6,nt
O=C(COC(=O)C12CC3CC(CC(Br)(C3)C1)C2)N1CCOCC1,0.0%,-3.9,-2,-26,5,-2,12%
Cc1ccc(Cn2c(SCCN3CCCCC3)nc3c2c(=O)n(C)c(=O)n3C)cc1,7.3%,-1.3,2,-9,-6,-25,-13%
CC1Cc2ccccc2N1CC(=O)Nc1ccc2c(c1)OC(F)(F)O2 (centres undefined),2.5%,-1.5,-20,-3,-15,-6,-8%
O=C(COc1ccccc1)N1CCN=C1SCc1ccccc1,0.9%,-3.6,10,7,2,-5,-4%
Cc1ccc(C(=O)NCCc2nnc3ccc(SCC(=O)N4CCCC4)nn23)cc1,-0.7%,-2.9,3,-1,-1,-4,-6%
CCCn1c(N2CCC(Cc3ccccc3)CC2)nc2c1c(=O)[nH]c(=O)n2C,-3.3%,-2.1,-10,-13,-4,-9,-17%
O=C(COC(=O)CCc1ccccc1)NC12CC3CC(CC(C3)C1)C2,0.1%,2.8,5,-32,8,-19,18%
CCN(CC)S(=O)(=O)c1ccc(C(=O)/C=C/c2ccc(-c3ccc([N+](=O)[O-])cc3)o2)cc1,0.4%,-0.3,2,-4,5,-3,79µM*
CCOc1ccccc1NC(=O)CCc1ccc(C)o1,1.9%,-0.2,-17,3,-2,-14,-1%
CCN(CC)Cc1csc(C(N)=O)c1,-2.4%,-3.9,8,-9,1,-11,2%
CC(C)CNC(=O)C1CCN(S(=O)(=O)c2ccc3c(c2)OCCO3)CC1,-2.6%,-2.4,-8,9,6,-17,nt
CCc1ccccc1NC(=O)CNC(=O)CCNC(=O)Nc1ccccc1,-1.3%,-1.9,5,5,-14,2,nt
N/C(=N\N=C\c1ccco1)SC1CC(=O)N(c2ccccc2)C1=O (centres undefined),1.7%,7.4,-6,3,3,-2,-11%
CC/C(=C\c1ccc(N(C)C)cc1)c1ccncc1,4.0%,-0.7,?,nt,?,-22,nt
O=C(N/N=C\C=C\c1ccco1)c1cncc(Br)c1,-0.1%,0.7,-19,-15,-5,-8,40µM*
O=C1NCCCCC1NS(=O)(=O)c1ccccc1 (centres undefined),1.4%,-0.8,1,-16,nt,-6,-1%
CCN(C(=O)COC(=O)COc1ccc2c(c1)CCC2)c1c(N)n(Cc2ccccc2)c(=O)[nH]c1=O,-0.2%,2.8,5,-3,1,-10,nt
O=C(NCCCn1ccnc1)C1c2ccccc2Oc2ccccc21,-0.9%,-4.4,-1,-6,-5,-8,16%
COC(=O)c1sc(S(=O)(=O)NCc2ccccc2)c(C(=O)OC)c1C,1.9%[38.3 µM],0.1,3,-1,0,0,9%
CCCNC(=O)C1(C)CCN(C(=O)COc2ccc(Cl)cc2Cl)C1 (centres undefined),-0.3%,-4.8,6,nt,0,-10,nt
Cc1ccc(-c2cc(N)nc(-c3ccccc3)c2)cc1,0.9%,-2.3,-1,-29,6,-6,-22%
COc1ccc(CCNS(=O)(=O)c2ccc(-c3ccc(=O)[nH]n3)o2)cc1OC,-0.6%,0.0,0,?,1,-7,11%
Cc1cc(C)c2c(N)c(C(=O)NCC3CCCCC3)sc2n1,0.5%,-1.5,-8,3,-3,-7,-7%
CCOc1ccc(N2C(=O)CC(SCc3nc4ccccc4[nH]3)C2=O)cc1 (centres undefined),-0.5%,-2.7,-13,-7,-6,-16,-26%
CCn1ccc(C(=O)Nc2cccc(Cl)c2)n1,0.0%,-2.5,7,-30,2,-11,14%
O=C(c1cc2cc(Cl)ccc2oc1=O)N1CCOCC1,-0.2%,-2.6,1,12,0,-5,27%

# Random excerpt: 2 entries already listed.
SMILES,PINK1 expr mod,D2 ag,Six1-Eya2 inh,TRPV1 PAM,CtBP-E1A inh,D2 PAM,Sfp PPTase inh
O=C(c1cc2cc(Cl)ccc2oc1=O)N1CCOCC1,-0.2%,-2.6,1,12,0,-5,27%
COc1ccc(CCNS(=O)(=O)c2ccc(-c3ccc(=O)[nH]n3)o2)cc1OC,-0.6%,0.0,0,?,1,-7,11%

# Later entries:
SMILES,PINK1 expr mod,D2 ag,Six1-Eya2 inh,TRPV1 PAM,CtBP-E1A inh,D2 PAM,Sfp PPTase inh
CCOc1ccc2nc(NC(=O)C3CCN(c4cnccn4)CC3)sc2c1,0.1%,2.1,-17,-6,-20,-3,-5%
Cc1cc(=O)[nH]c(/N=C(\N)Nc2cccc3ccccc23)n1,-0.7%,-2.3,1,-20,15,-3,-2%
Cc1cc(C)c(OCC(=O)NCC(c2ccco2)N2CCCCC2)c(C)c1 (centres undefined),25%,4.8,-7,-8,0,-5,nt
O=C1c2ccccc2C(=O)C1c1ccccc1,1.1%,-1.5,-1,15,8,-5,-5%&11%&10%
CCCCN(C)CC(O)Cn1cc(/C=C/C(=O)c2cccs2)c2ccccc21 (centres undefined),-5.1%,9.1,2,-10,3,-15,20µM*
COc1ccccc1-c1n[nH]c(=S)o1,-0.7%,-0.7,5,-12,5,-11,-19%
Cc1ccc(C)c(N(C(=O)c2snc(C(N)=O)c2N)C(C(=O)NCC2CCCO2)c2ccc(C)o2)c1 (centres undefined),-1.3%,-2.9,-3,10,-1,0,-6%
CC(C)COc1ccc(C(=O)N(Cc2ccco2)C2CCS(=O)(=O)C2)cc1 (centres undefined),-2.0%,-2.5,-6,-2,-3,9,5%
Brc1cccc(-c2nnc3sc(CNC4CCCC4)cn23)c1,2.1%,-8.2,-10,-6,2,-10,5%
Cc1ccc(CNC(=O)c2ccc3c(=O)c(O)c(-c4ccc(C)cc4)[nH]c3c2)cc1,4.3%,3.7,2,19,nt,-15,22%

# Nothing new here: an excerpt of the list.
SMILES,PINK1 expr mod,D2 ag,Six1-Eya2 inh,TRPV1 PAM,CtBP-E1A inh,D2 PAM,Sfp PPTase inh
Brc1cccc(-c2nnc3sc(CNC4CCCC4)cn23)c1,2.1%,-8.2,-10,-6,2,-10,5%
Cc1ccc(CNC(=O)c2ccc3c(=O)c(O)c(-c4ccc(C)cc4)[nH]c3c2)cc1,4.3%,3.7,2,19,nt,-15,22%

# Carrying on.
SMILES,PINK1 expr mod,D2 ag,Six1-Eya2 inh,TRPV1 PAM,CtBP-E1A inh,D2 PAM,Sfp PPTase inh
CCCN(CCC)C(=O)c1ccc2nc(-c3ccc(OC)c(OC)c3)c(-c3ccc(OC)c(OC)c3)nc2c1,3.2%,-5.3,25,1,nt,-7,-2%
CCOc1ccc(/C=N/NC(=O)C2(O)c3ccccc3-c3ccccc32)cc1,-2.6%,-3.8,-29,4,3,2,31%[activator]
O=S(=O)(c1ccc(SCc2ccc(Cl)cc2)nc1)N1CCCC1,2.6%,4.3,30,4,35,3,nt
O=C(COC(=O)C1CCC1)NCc1ccccc1,4.0%,1.0,3,8,7,-1,nt
Cc1cc(-c2nnc3n2N=C(c2ccc(-c4ccccc4)cc2)CS3)n[nH]1,15%,1.4,-72*,-12,-69*,2,-4%
CCN1CCN(CCCOc2ccc(Cl)cc2Br)CC1,4.4%,-2.1,1,-10,nt,-19,10µM*
Cc1ccc(NC(=O)COC(=O)Cc2ccccc2)cc1S(=O)(=O)N1CCOCC1,1.7%,2.9,4,nt,-6,-10,nt
CC(C)c1nnc(NC(=O)C2c3ccccc3Oc3ccccc32)s1,-1.4%,-2.6,-1,1,-3,2,-24%
O=C(OCC(=O)N1CCCCC1)c1cc(NS(=O)(=O)c2ccc(Cl)c([N+](=O)[O-])c2)ccc1O,6.2%,-4.8,-5,-17,-5,-18,-1%
COC(=O)c1c(CSc2cccc(C)c2)noc1C(=O)NCc1ccco1,0.1%,-0.8,-8,?,nt,-23,-9%
Cc1ccc(C(=O)O/N=C(\N)c2cccc([N+](=O)[O-])c2)cc1,-0.3%[38.3 µM],?,-5,-8,-7,60*,1%
O=C(CSc1nnc(-c2ccncc2)n1Cc1ccco1)Nc1nc(-c2ccccc2)cs1,0.8%,-0.8,-10,14,1,-6,4%
O=C(CSc1nnnn1-c1ccccc1)N1CCCc2ccccc21,-0.7%,-3.5,6,-2,13,-7,7%
COC(=O)Nc1ccc(S(=O)(=O)N2c3ccccc3CCC2C)cc1 (centres undefined),5.9%[38.3 µM],-1.8,-7,15,1,-5,4%
CCCCc1nnc(NC(=O)CSCc2cc(=O)n3cc(C)sc3n2)s1,0.1%,-2.7,3,1,-10,-9,10%
COc1ccc(C2=NN(S(=O)(=O)c3ccccc3)C(c3ccccc3)C2)cc1 (centres undefined),-0.2%,-0.9,-10,7,-6,-13,17%
COc1ccc(/C(C)=N/NC(=O)c2ccc3nc[nH]c3c2)cc1,2.7%,-1.2,-7,7,0,2,17%
COc1ccc(C(CCNCc2ccc(OC(C)C)cc2)C(C)C)cc1 (centres undefined),-2.7%,-1.7,4,-8,8,-16,3%
